Screening results: PubChem, several laboratories
Mtb bLac sens – beta-lactam sensitization of Mtb H37Rv, H37Rv; M. tuberculosis H37Rv growth with meropenem, percent inhibition; hits of this screen are not shown here; inhibition, % at 25 µM; 0.27% of 330,000 active;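 active means about 74% or more and at least 40 points above the plate without the antibiotic, then above 30% in a dose series; inconclusive means first-round hits that could not be retested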;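 further: growth measured after seven days incubation then overnight dye step; 0% = bacteria only wells and 100% = bacteria with antibiotic; twin plates without the antibiotic show which effects depend on it; some results filed as inactive read as strong as hits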
Mtb growth – M. tuberculosis H37Rv growth inhibitors, H37Rv strain (AID 1626); M. tuberculosis H37Rv growth inhibition; higher % means a stronger effect; inhibition, % at 10 µM; hits with a dose series show IC50 in µM; 0.95% of 220,000 active;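 active means confirmed in a dose series; inconclusive means inhibition above 80% but not taken into the dose series; inactive means below 80% or under 30% at every dose of the series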;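 further: bacteria incubated seven days before Alamar blue readout; 0% = bacteria only wells and 100% = bacteria with antibiotic wells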
Arbovirus anti – antivirals against arbovirus infection, primary screen, cell-based, full library, 10K replicate subset. arbovirus infection cell-based antiviral screen. AID 1251, 2008. 0.37% of 200,000 active. inhibition, % at 10 µM;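 active means inhibition from about 30%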;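 further: bluetongue infection of BSR cells; cell survival read as ATP light after 72 h; 0% = infected wells without compound and 100% = uninfected wells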
RecA splice inh – Mtb RecA intein splicing inhibitors, primary screen, biochemical, fluorescence, HTS | 0.75% of 290,000 active | cell-free RecA intein splicing | inhibition, %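 (about 9 µM by stock and volumes)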 | Protein RecA (Mycobacterium tuberculosis (strain ATCC 25618 / H37Rv)), P9WHJ3; in the data active means inhibition above about 30%; inconclusive means no clear call, values can overlap the other calls;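 further: 0% = vehicle wells and 100% = reference inhibitor control wells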
Target sequence (P9WHJ3 whole entry, looked up, canonical isoform): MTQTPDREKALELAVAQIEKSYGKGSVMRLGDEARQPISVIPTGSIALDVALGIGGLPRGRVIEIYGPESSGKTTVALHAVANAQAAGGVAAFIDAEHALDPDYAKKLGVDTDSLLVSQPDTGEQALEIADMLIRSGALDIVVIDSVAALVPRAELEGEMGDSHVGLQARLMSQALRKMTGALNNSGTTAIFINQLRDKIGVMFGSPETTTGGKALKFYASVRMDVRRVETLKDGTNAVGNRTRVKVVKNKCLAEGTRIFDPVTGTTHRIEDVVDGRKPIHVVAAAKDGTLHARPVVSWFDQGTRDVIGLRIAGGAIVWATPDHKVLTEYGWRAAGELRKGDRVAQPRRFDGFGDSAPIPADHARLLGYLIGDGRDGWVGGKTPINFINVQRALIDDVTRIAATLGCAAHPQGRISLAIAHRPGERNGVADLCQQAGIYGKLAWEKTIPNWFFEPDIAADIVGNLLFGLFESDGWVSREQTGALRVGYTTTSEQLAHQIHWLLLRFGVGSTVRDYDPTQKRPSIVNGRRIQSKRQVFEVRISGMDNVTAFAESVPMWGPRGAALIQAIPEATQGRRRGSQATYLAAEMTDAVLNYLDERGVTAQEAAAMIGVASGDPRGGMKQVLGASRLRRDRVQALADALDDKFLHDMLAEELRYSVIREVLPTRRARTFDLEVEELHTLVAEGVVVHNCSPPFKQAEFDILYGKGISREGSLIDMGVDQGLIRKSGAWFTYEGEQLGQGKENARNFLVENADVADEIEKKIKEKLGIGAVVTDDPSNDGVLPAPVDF
YopH inh – YopH tyrosine phosphatase inhibitors, primary screen, biochemical, fluorescence Ex485/Em525. inhibition, %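 (about 10 µM by stock and volumes)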. 0.16% of 140,000 active. YopH tyrosine phosphatase [Yersinia enterocolitica];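 active means inhibition of 50% or more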;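 further: controls were vehicle for no effect and minimum signal wells for full effect; inactives centre near -20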
Arbovirus anti repeat – second read-out of Arbovirus anti, no call of its own (marks repeat the call); inhibition, %; measured here: 10K subset replicate screen; many hits read low in the repeat;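 first of two repeat runs on a subset; 0% = infected and 100% = uninfected wells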
Starred values were filed as active, the others as inactive. An excerpt; the hit share may differ from the screen's.

CCc1nc(NC(=O)NS(=O)(=O)c2ccccc2C(=O)OC)nc(OC)n1 was read as Mtb bLac sens 6, Mtb growth 5%, Arbovirus anti 1 and RecA splice inh 0.9.
`COc1ccc(NC(=O)CN(C)C(=O)CCCSc2nc3ccccc3[nH]2)cc1` gave Mtb bLac sens -2 and RecA splice inh 1.7.
`Cc1ccc(-n2nc3c(c2NC(=O)c2cccs2)CS(=O)(=O)C3)cc1C` gave Mtb bLac sens -4 and RecA splice inh 2.2.
Screening CCN1CCN(c2cc(C)c3cc(NC(=S)N(CC)CC)ccc3n2)CC1 returned Mtb bLac sens -7, Mtb growth 0%, Arbovirus anti 8 and RecA splice inh -3.7.
`c1ccc2c(c1)NC(c1ccncc1)n1c-2nc2ccccc21` (centres undefined) gave Mtb bLac sens -9, Mtb growth -2%, Arbovirus anti -9, RecA splice inh -5.3 and YopH inh -30.
Screening COc1ccc(OC)c(NC(=O)CNC(=O)Cn2ccc3ccccc3c2=O)c1 returned Mtb bLac sens 3, Mtb growth -4%, Arbovirus anti -1, RecA splice inh -1.6, YopH inh -48 and Arbovirus anti repeat -5.
For C/C(=N\NC(=O)c1nnn(-c2nonc2N)c1CN1CCC(C)CC1)c1cccc(Br)c1 the results were Mtb bLac sens -1 and RecA splice inh 0.4.
`COc1cc(SC)ccc1C(=O)Nc1ccc2c(c1)CCN2S(C)(=O)=O` gave Mtb bLac sens 12, Mtb growth -10%, Arbovirus anti -6, RecA splice inh -1.6, YopH inh 2 and Arbovirus anti repeat 4.
For Cc1cccc2cc(C#N)c(NCCCNS(=O)(=O)c3ccc(Cl)cc3)nc12 the results were Mtb bLac sens -3, Mtb growth 12% and RecA splice inh -29.
Screening O=C(NC1CCCCC1)C(c1cccs1)N(CC1CCCO1)C(=O)c1csnn1 (centres undefined) returned Mtb bLac sens -23, Mtb growth 2%, Arbovirus anti 1 and YopH inh 6.
`COc1ccc2nc(C)[nH]c(=O)c2c1` gave Mtb bLac sens -12, Mtb growth 5%, Arbovirus anti 8, RecA splice inh -1.5 and YopH inh -42.
`O=C(Cc1c[nH]c2ccccc12)Nc1nccs1` gave Mtb bLac sens -5, Mtb growth 4%, Arbovirus anti 0, RecA splice inh -0.1 and YopH inh -44.
For CCc1nnc(NC(=O)CCC(=O)N2CCN(Cc3ccc(F)cc3)CC2)s1 the results were Mtb bLac sens 3 and RecA splice inh -2.7.
Screening COc1ccc(C(=O)N2CCN(C3CCCCC3)CC2)cc1OC returned Mtb bLac sens 5 and RecA splice inh -1.3.
COc1ccc(CN2CCOC2=O)cc1OC was read as Mtb bLac sens 2, Mtb growth -8% and RecA splice inh 3.5.
For O=C(Nc1nnc(C2CC2)s1)c1cc(-c2ccccc2)nn1-c1ccccc1 the results were Mtb bLac sens 99, Mtb growth 44%, Arbovirus anti -1, RecA splice inh 0.4, YopH inh -10 and Arbovirus anti repeat 0.
Fc1ccc(N2CCN(C3CCC(c4ccccc4)CC3)CC2)cc1 (centres undefined) was read as Mtb bLac sens 2 and RecA splice inh 3.2.
COc1ccc(NS(=O)(=O)c2ccc3oc4ccccc4c3c2)cn1 was read as Mtb bLac sens 0, Mtb growth -7%, Arbovirus anti -12 and YopH inh -15.
Screening COc1ccc(-n2cnnc2SCC(=O)N(C)c2ccccc2)cc1 returned Mtb bLac sens -2 and RecA splice inh 2.3.
Screening CC1(C)CN(c2ccc(F)cc2)C1=O returned Mtb bLac sens 2, Mtb growth -6%, Arbovirus anti -1 and RecA splice inh -5.2.
`COc1cccc(C2CC(c3ccccc3)=NN2S(=O)(=O)c2ccccc2)c1OC` (centres undefined) gave Mtb bLac sens 2, Mtb growth 1%, Arbovirus anti 3 and RecA splice inh 3.7.
Cc1ccc(-c2nc3ccc([N+](=O)[O-])cc3[nH]2)cc1 was read as Mtb bLac sens 9, Mtb growth 14%, Arbovirus anti 16 and RecA splice inh 13.
`NC(=O)CSc1nnc(-c2ccco2)n1N` gave Mtb bLac sens -5, Mtb growth 2%, Arbovirus anti 5, RecA splice inh -0.5 and YopH inh -19.
For COc1cc(OC)c(OC)cc1CNCC1COc2ccccc2O1 (centres undefined) the results were Mtb bLac sens -1 and RecA splice inh -6.3.
For COc1ccccc1OCC(=O)Nc1ccc(S(=O)(=O)Nc2nc(C)cc(C)n2)cc1 the results were Mtb bLac sens 6, Mtb growth -9%, Arbovirus anti -5, RecA splice inh 0.1 and YopH inh 11.
C=CCOC(=O)c1ccc(-n2cncn2)nc1 was read as Mtb bLac sens 1, Mtb growth -11%, Arbovirus anti 2, RecA splice inh 0.5 and YopH inh -23.
COc1ccc2[nH]c(C(=O)NCc3ccc4c(c3)OCO4)cc2c1 was read as Mtb bLac sens -3, Mtb growth 4% and RecA splice inh 6.4.
Screening O=C(C1COc2ccccc2O1)N1CCN(c2nc3ccc([N+](=O)[O-])cc3s2)CC1 (centres undefined) returned Mtb bLac sens -1 and RecA splice inh -2.3.
COc1ccc(Cl)cc1NC(=O)CCS(=O)(=O)c1ccc(Br)cc1 was read as Mtb bLac sens 3 and RecA splice inh 0.3.
For CCCS(=O)(=O)N1CCN(C(=O)c2ccccc2F)CC1 the results were Mtb bLac sens 0, Mtb growth -11%, Arbovirus anti -4, RecA splice inh -0.5 and YopH inh -20.

Three entries from above, ordered by SMILES length, lowest first.
Screening COc1ccc(C(=O)N2CCN(C3CCCCC3)CC2)cc1OC returned Mtb bLac sens 5 and RecA splice inh -1.3.
For Cc1cccc2cc(C#N)c(NCCCNS(=O)(=O)c3ccc(Cl)cc3)nc12 the results were Mtb bLac sens -3, Mtb growth 12% and RecA splice inh -29.
For COc1ccccc1OCC(=O)Nc1ccc(S(=O)(=O)Nc2nc(C)cc(C)n2)cc1 the results were Mtb bLac sens 6, Mtb growth -9%, Arbovirus anti -5, RecA splice inh 0.1 and YopH inh 11.

(next part)
Screening COc1ccccc1N(C)S(=O)(=O)c1ccc(Cl)c(C(=O)N2CCC2)c1 returned Mtb bLac sens 3 and RecA splice inh 1.1.
`Cc1ccc(Cn2cccc(NC(=O)c3ccco3)c2=O)cc1` gave Mtb bLac sens -10, Mtb growth 1%, Arbovirus anti -5, RecA splice inh 1.1 and YopH inh 3.
Screening CCN(CC)CCNC(=O)c1c(O)c2cccc3c2n(c1=O)CCC3 returned Mtb growth -1%, Arbovirus anti -6, RecA splice inh -1.4 and YopH inh -7.
CC(C)Cn1c(C(C)C)nc([N+](=O)[O-])c1S(=O)(=O)c1ccc(F)cc1 was read as Mtb bLac sens -9, Mtb growth 3%, Arbovirus anti -38, RecA splice inh 51* and YopH inh -43.
Screening COc1ccc(-n2c(C)nn(C)c2=O)cc1 returned Mtb bLac sens -6, Mtb growth -7%, Arbovirus anti 5, RecA splice inh 0.3 and YopH inh -26.
CN(Cc1cccnc1)Cc1cn(C)nc1-c1cccc(Cl)c1 was read as Mtb bLac sens -6, Mtb growth -4%, Arbovirus anti 2 and RecA splice inh 0.2.
COCCCn1c(SCCc2ccccc2)nc2cc(OC)c(OC)cc2c1=N was read as Mtb bLac sens 90, Mtb growth 67%, Arbovirus anti -7 and RecA splice inh 1.4.
For COc1ccc(/C=N/NC(=S)Nc2c(C)n(C)n(-c3ccccc3)c2=O)cc1OC the results were Mtb bLac sens -3, Mtb growth -3% and RecA splice inh -1.5.
CSc1nc(C)cc(SCC(=O)Nc2ccc(Cl)cc2Cl)n1 was read as Mtb bLac sens -2, Mtb growth -5%, Arbovirus anti 0, RecA splice inh -0.7 and YopH inh -39.
`Clc1ccc(OCc2cnc(Cl)s2)cc1` gave Mtb bLac sens 0, Arbovirus anti -7, RecA splice inh -2.3 and YopH inh -2.
Screening Cc1nn(C)cc1CNC(=O)c1ccccc1Br returned Mtb growth -1%, Arbovirus anti -1, RecA splice inh 1.1 and YopH inh 26.
For Cc1ccc(S(=O)(=O)CC(=O)N(C)C)cc1 the results were Mtb bLac sens -15, Mtb growth -9%, Arbovirus anti 6, RecA splice inh -1.2 and YopH inh -13.
`CCSc1nnc(NC(=O)CC)s1` gave Mtb bLac sens -8, Mtb growth 5%, Arbovirus anti 3, RecA splice inh -0.7, YopH inh -50 and Arbovirus anti repeat 2.
Screening O=C1CN(C(=O)CSc2nc3ccccc3n2CCc2ccccc2)c2ccccc2N1 returned Mtb bLac sens -3, Mtb growth 7%, Arbovirus anti 1, RecA splice inh 6.2 and YopH inh -36.
COC(=O)CCN1CCN(S(=O)(=O)c2cccc(Br)c2)CC1 was read as Mtb bLac sens -3, Mtb growth -5%, Arbovirus anti 4 and RecA splice inh -1.6.

Reprinted at random: 2 compounds from above.
`Cc1ccc(Cn2cccc(NC(=O)c3ccco3)c2=O)cc1` gave Mtb bLac sens -10, Mtb growth 1%, Arbovirus anti -5, RecA splice inh 1.1 and YopH inh 3.
Screening COc1ccccc1N(C)S(=O)(=O)c1ccc(Cl)c(C(=O)N2CCC2)c1 returned Mtb bLac sens 3 and RecA splice inh 1.1.

Next results
`COC(=O)c1cc2occc2n1Cc1nc(-c2ccc(Cl)cc2)oc1C` gave Mtb bLac sens 2, Arbovirus anti -12, RecA splice inh 1.2 and YopH inh -12.
Screening O=C(Nc1ccccc1-c1nnn(CC(=O)N2CCOCC2)n1)c1ccc(F)cc1 returned Mtb bLac sens -1, Mtb growth -1%, Arbovirus anti -3 and RecA splice inh 1.8.
For O=C(Nc1cccc(C(F)(F)F)c1)C(Sc1ncnc2ccccc12)c1ccccc1 (centres undefined) the results were Mtb bLac sens 6, Mtb growth 2%, Arbovirus anti 7, RecA splice inh 0.3 and YopH inh -19.
`CCCCN(C)CCCNC(=O)CN1C(=O)CSc2ccc(S(=O)(=O)N3CCOCC3)cc21` gave Mtb bLac sens -8, Mtb growth -3%, Arbovirus anti 5 and YopH inh 1.
Screening O=C(Nc1nc2c(s1)CCCC2)c1ccc(Br)s1 returned Mtb bLac sens 100, Mtb growth inconclusive, Arbovirus anti 38* and YopH inh -22.
`Cc1cccc(NC(=S)N2CCC(NC(=O)c3cccc(F)c3)CC2)c1` gave Mtb bLac sens 2 and RecA splice inh -1.3.
Screening Nc1nc(SCC(=O)Nc2ccccc2-c2ccccc2)n[nH]1 returned Mtb bLac sens 3, Mtb growth -1%, Arbovirus anti -6, RecA splice inh 3.6 and YopH inh -51.
`Cc1ccc(CC2CC(=O)N(c3ncccn3)C2=O)cc1` (centres undefined) gave Mtb bLac sens -3, Mtb growth -2% and RecA splice inh 0.2.
`CCn1c(O)c(N=NC2=NC(=O)CS2)c2ccccc21` gave Mtb bLac sens 44, Mtb growth 2%, Arbovirus anti 8, RecA splice inh -0.5 and YopH inh -47.
CN(C)c1ccc(C2CC(=O)C=C(Nc3ccccc3N)C2)cc1 (centres undefined) was read as Mtb bLac sens -10, Mtb growth -5% and RecA splice inh -0.3.
For CCc1ccc(OCC(=O)NNC(=S)NC(=O)C2CC2)c(Br)c1 the results were Mtb bLac sens 96 and RecA splice inh 9.0.
Screening COc1ccc(-n2cnnc2SCc2csc(-c3ccccc3)n2)cc1 returned Mtb bLac sens -5, Mtb growth -2%, Arbovirus anti 8, RecA splice inh 1.6 and YopH inh -26.
`COc1ccccc1N1CCN(/N=C\c2sccc2C)CC1` gave Mtb bLac sens 3, Mtb growth -1%, Arbovirus anti 2 and RecA splice inh 1.1.
Cc1cc(-c2cc(-c3ccc(Cl)cc3)nc(N)c2C#N)co1 was read as Mtb bLac sens 1, Arbovirus anti -1, RecA splice inh -4.7 and YopH inh -31.
COc1ccc(CCNC(=O)c2ccc(C)s2)cc1OC was read as Mtb bLac sens 0, Mtb growth 1%, Arbovirus anti 8 and RecA splice inh 1.7.
`O=C(c1ccc(S(=O)(=O)N2CCCC2)cc1)N1CCCCC1` gave Mtb bLac sens -10 and RecA splice inh -1.7.
For COc1ccc(-c2cc(C(=O)N3CCCc4ccccc43)no2)cc1OC the results were Mtb bLac sens 3, Mtb growth 7%, Arbovirus anti -3, RecA splice inh -2.9 and YopH inh -49.
O=C(NNC(=S)Nc1ccc(F)cc1)[C@H]1C[C@@H]1c1ccccc1 was read as Mtb bLac sens 0 and Mtb growth 0%.
O=C(N/N=C/c1c[nH]c2c1ccc1ccccc12)c1ccc([N+](=O)[O-])cc1 was read as Mtb bLac sens 2, Mtb growth -1%, Arbovirus anti -7, RecA splice inh 2.1 and YopH inh -28.
CCOC(=O)Nc1ccccc1C(=O)Nc1cc(C)cc(C)c1 was read as Mtb bLac sens 6, Mtb growth 12%, Arbovirus anti 0 and RecA splice inh -2.5.
Cc1[nH]c2ccc(C(=O)NCCCN3CCOCC3)cc2c1C was read as Mtb bLac sens -15 and RecA splice inh -1.8.
`COc1ccc(NC(=S)Nc2ccc(N)c([N+](=O)[O-])c2)cc1` gave Mtb bLac sens 56, Mtb growth 3%, Arbovirus anti -6, RecA splice inh 7.6 and YopH inh -14.
